Assay outcomes deposited in PubChem by Southern Research Institute.
Mtb growth: Mycobacterium tuberculosis H37Rv growth inhibition, cell based, confirmatory dose response (AID 1949). actives 1.6% (n = 100,000). one-dose inhibition, % at 10 µg/mL; IC50 in µg/mL for titrated hits. most inactive calls were filed without a number and no value below 0 was filed;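 active means confirmed in a dose series; inconclusive means about 50% or more but not retested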;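 further: bacteria grown 7 days with compound before Alamar blue readout; 0% = untreated bacteria and 100% = reference antibiotic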
The depositor's hits bear a star; i = inactive; ? = inconclusive.

SMILES | Mtb growth
CCOc1cc(C(=S)N2CCOCC2)cc(Cl)c1OC(=O)c1cc(Cl)ccc1Cl | 5%
Cc1ccc2oc(/N=C(/N)NC(=O)c3ccccc3)nc2c1 | 2%
CSc1ccccc1NC(=O)Cn1nnc(-c2ccccc2F)n1 | i
CCOC(=O)C1=C(c2ccccc2)NC(=S)NC1c1cc(OCC)ccc1Br (stereo not given) | 3%
CCOc1ccc(N(CC(N)=O)S(C)(=O)=O)cc1 | i
COc1ccc(S(=O)(=O)CCc2nc3ccccc3n2CC(=O)O)cc1 | 6%
Cc1occc1C(=O)NC(C)c1ccc2c(c1)OCO2 (stereo not given) | i
Cc1c(NC(=O)c2ccc(Br)o2)cccc1C(=O)O | i
Cc1ccc(S(=O)(=O)NC(=O)C(Cl)Cl)cc1 | i
Cc1cccc(NC(=O)c2ccc(Cl)cc2)c1 | 13%
Cc1nn(-c2cc(N3CCN(C(=O)c4cccc(F)c4)CC3)ccc2[N+](=O)[O-])c(=O)c2ccccc12 | i
CC(C)(C)OC(=O)NNC(=S)NCc1ccco1 | i
CCOc1ccccc1OCC(=O)Nc1ccc([N+](=O)[O-])cc1OC | 1%
O=C(C1CCN(S(=O)(=O)c2cc(Cl)ccc2Cl)CC1)N1CCN(c2ccccc2F)CC1 | 3%
CCCCC(=O)NNC(=S)NCc1ccccc1 | 3%
O=C(NC1CC1)c1cccc(Br)c1 | i
CCc1ccccc1NC(=O)CN(c1ccc(C(C)C)cc1)S(=O)(=O)c1ccccc1 | i
O=S(=O)(Nc1ncccn1)c1ccc(NC(=S)NCCc2ccc(Cl)cc2)cc1 | i
CCc1ccc(OCC(=O)Nc2ccc(S(=O)(=O)Nc3cc(C)cc(C)c3)cc2)cc1 | 2%
Nc1ccc(/C=C/c2cccc(C(=O)O)n2)cc1 | 2%
CCCCn1c2ccccc2c2nnc(SCC(=O)NC3=NN=C(c4ccccc4)CS3)nc21 | i
O=C(CCC(=O)Nc1ccccc1Cl)NNC(=O)NC1CCCCC1 | i
C=CCN(CC=C)C(=S)Nc1ccc(S(N)(=O)=O)cc1 | i
CC(C)C(C(=O)Nc1cc(Cl)cc(Cl)c1)N1C(=O)c2ccccc2C1=O (stereo not given) | i
COc1ccccc1NS(=O)(=O)c1ccc(NC(C)=O)cc1 | i
CC(C)Oc1cccc(C(=O)Nc2ccc(N3CCOCC3)cc2)c1 | i
O=C1CCC(=O)N1OCCCCOc1ccccc1 | i
O=C(COc1ccc(S(=O)(=O)N2CCc3ccccc32)cc1Cl)Nc1ccc2c(c1)OCO2 | i
C=CCn1c(SCC(=O)c2ccc(Cl)cc2)nc2sc(C)cc2c1=O | i
Cc1cc(=O)[nH]c2c1cnn2Cc1ccccc1 | i
Cc1ccc(C2C(C#N)=C(N)N(c3ccccc3Br)C3=C2C(=O)CCC3)s1 (stereo not given) | 1%
Cc1ccc2cccc(Nc3nc(=O)c4cccnc4s3)c2n1 | 5%
COC(=O)c1ccc(OCC(O)CNC2CCCC2)cc1 (stereo not given) | i
Cc1ccc(S(=O)(=O)NC2(C(F)(F)F)C(=O)N(c3ccccc3)C3=C2C(=O)CC(C)(C)C3)cc1 (stereo not given) | 1%
O=[N+]([O-])c1ncn(Cc2ccc(F)cc2)n1 | i
COc1ccc(NC(=O)CSc2nnc(C)n2-c2ccc(C)c(C)c2)cc1 | i
O=C(Nc1ccc(N2CCN(Cc3ccccc3F)CC2)cc1)c1ccccc1I | i
CCN(CC)C(=O)CSc1nc2ccccc2c(=O)n1Cc1ccccc1 | i
CCCOc1ccc(-c2nn(-c3ccccc3)cc2C2NC(=O)NC(C)=C2C(=O)OCC)cc1 (stereo not given) | i
CCc1c(C)sc(NC(=O)c2sc3cc(C)ccc3c2Cl)c1C(N)=O | i
C=CCN1C(=O)/C(=c2\sc3nc(-c4ccccc4OC(C)=O)nn3c2=O)c2ccccc21 | 13%
COc1cccc(COc2cc3oc(=O)cc(C)c3cc2Cl)c1 | i
CCOC(=O)C1=C(C)N(C)C(=O)NC1c1cccc(F)c1 (stereo not given) | i
CC(C)(C)c1ccccc1OCCCN1CCNCC1 | i
COC(=O)c1cc(N2CCNCC2)nc2ccccc12 | i
CCOc1ccc(OCC)c(C2C(C#N)=C(N)N(c3cccnc3)C3=C2C(=O)CC(C)(C)C3)c1 (stereo not given) | i
CCOc1ccccc1N1CCN(C(=S)Nc2ccc(S(=O)(=O)Nc3ncccn3)cc2)CC1 | 2%
O=C(Nc1nnc(SCc2ccccc2F)s1)c1ccc(Cl)cc1Cl | i
COc1ccc(OC)c(NC(=O)CN2CCC(C(N)=O)CC2)c1 | i
Cc1cccc(C(C)C)c1NC(=O)c1cccc(C(=O)Nc2c(C)cccc2C(C)C)c1 | i

(list continues)
SMILES | Mtb growth
Cc1ccc(NC(=O)Cc2nnc(SCC(=O)c3ccc(Br)cc3)n2C)cc1 | i
COc1ccc(CCNC(=O)COc2ccc(C(=O)NCc3ccccc3)cc2)cc1OC | i
O=C(Nc1ccc(OCc2ccccc2)cc1)c1ccc2ccccc2c1 | 7%
CCOc1ccccc1OCCN1CCCCCC1 | i
COc1ccc(NC(=O)CC2C(=O)N(c3cccc(OC)c3)C(=O)N2CCc2cccs2)cc1 (stereo not given) | 3%
COc1ccc(C(=O)c2ccc(N3CCOCC3)c(F)c2)cc1Br | i
Cc1nc2ccccc2n1CCCOc1ccccc1 | ?
O=C(CSc1ccc2ccccc2n1)N1CCCCCC1 | i
CCCC(=O)Nc1nc2ccc(NC(=O)c3c(F)c(F)c(OC)c(F)c3F)cc2s1 | i
CCOC(=O)c1c(NC(C)=O)sc(C(=O)Nc2ccc(C)cc2C)c1C | i

3 compounds out of the list, ordered by formula weight, descending:
SMILES | Mtb growth
O=C(Nc1ccc(OCc2ccccc2)cc1)c1ccc2ccccc2c1 | 7%
Cc1nc2ccccc2n1CCCOc1ccccc1 | ?
CCOc1ccccc1OCCN1CCCCCC1 | i

Other structures follow:
SMILES | Mtb growth
CCOC(=O)C1=C(C)N(c2ccccc2)C(=O)NC1c1cc(Br)c(O)c(OC)c1 (stereo not given) | i
CC(C)CNC(=S)Nc1ccccc1Oc1ccccc1 | i
CC(=O)c1cccc(NC(=S)Nc2ccc(CC(=O)O)cc2)c1 | i
CCc1c(C)sc(NC(=S)Nc2cc(OC)c(OC)cc2C(=O)OC)c1C(=O)OC | i
CC(=O)Nc1ccc(C(=O)Nc2cc(Cl)c(O)c(Cl)c2)cc1 | i
CCC1CCCCN1C(=O)COc1cc2oc(=O)c3c(c2cc1Cl)CCC3 (stereo not given) | i
CCOC(=O)c1ccc(NC(=O)CSc2nnc(-c3ccccc3)n2CC)cc1 | i
COc1ccc(C)cc1NC(=O)C12CCC(C)(C(=O)C1)C2(C)C (stereo not given) | i
CCC(C)n1c(-c2ccccc2F)n[nH]c1=S (stereo not given) | i
O=C(COc1ccc(I)cc1)NCc1ccco1 | 1%
COc1ccc(S(=O)(=O)N(CC(=O)Nc2cccc(Cl)c2C)c2ccc(Cl)cc2)cc1 | i
O=c1oc2ccccc2cc1-c1csc(Cc2nc(-c3ccc([N+](=O)[O-])cc3)cs2)n1 | i
COC(=O)c1c(NC(=O)C2COc3ccccc3O2)sc2c1CCCC2 (stereo not given) | i
N#Cc1sc2nc3c(c(-c4cccnc4)c2c1N)CCC3 | i
N#Cc1cc2c(nc1SCc1ccc([N+](=O)[O-])cc1)CCCCC2 | i
O=C(NCc1ccc(F)cc1)C(Sc1ccccc1)c1ccccc1 (stereo not given) | i
COc1ccc(CCNC(=O)C2CCN(S(=O)(=O)c3ccc(OC)c(OC)c3)CC2)cc1 | i
O=C(Nc1nnc(CC2CCCC2)s1)c1ccc([N+](=O)[O-])cc1 | i
CCCOc1ccc(-c2csc(NC(=O)CCC)n2)cc1 | i
N#C/C(=C\c1cc2c(cc1Cl)OCO2)c1ccc(C#N)cc1 | i
CCOC(=O)c1c(-c2ccccc2)c(-c2ccccc2)n[nH]c1=O | i
CN(C)C(=O)CSc1nc(-c2ccccc2)c(-c2ccccc2)o1 | 6%
COc1ccc(NC(=O)COc2noc3nc(C)c(C)c(C)c23)cc1OC | i
Cc1ccc(C(=O)C2=C(O)C(=O)N(CCCN3CCOCC3)C2c2ccc(OC(C)C)cc2)o1 (stereo not given) | i
CC(=O)c1cccc(NC(=S)Nc2cc(C)cc(C)n2)c1 | i
O=C(Cc1cccs1)Nc1ccccc1Cc1ccccc1 | i
COc1ccc(CCC(=O)Nc2cccc(Cl)c2C)cc1 | i
Cc1cc(Cl)c(S(=O)(=O)Nc2ccc(Oc3ccccc3)cc2)cc1OCC(N)=O | i
OC(COc1c(F)cc(Br)cc1F)CN1CCN(c2ccccn2)CC1 (stereo not given) | 0%
Cc1ccc(NC(=O)COc2ccccc2Br)c(C)c1 | 1%
C=CCn1c(SCC(=O)Nc2ccc([N+](=O)[O-])cc2C)nnc1-c1ccccc1 | i
CNc1cc(N2CCN(S(=O)(=O)c3ccc(Br)cc3)CC2)ccc1[N+](=O)[O-] | i
CCN1CCN(CCCOc2ccc(OC)cc2)CC1 | i
S=C(NCCc1ccccc1)NCc1ccc(Cl)cc1 | ?
CCOC(=O)c1ccc(NC(=O)COc2ccccc2C(N)=O)cc1 | 1%
COc1ccccc1N1CCN(C(=O)c2ccc(S(=O)(=O)N3CCCCCC3)cc2)CC1 | 1%
O=C(c1cc(-c2ccncc2)nc2ccc(Br)cc12)N1CCN(c2ccccn2)CC1 | 0%
CC1CCN(CCC(=O)N/N=C/c2ccc([N+](=O)[O-])cc2)CC1 | i
COc1ccc(CSc2nnc(C)s2)cc1F | i
Cc1ccc(OCCNC(=O)C2CCCCC2)cc1 | 0%
COc1ccc(N(CC(=O)NC2CCCCCC2)S(=O)(=O)c2ccccc2)cc1Cl | i
CCOC(=O)COc1ccc(S(=O)(=O)Nc2ccc(OCc3ccccc3)cc2)cc1 | i
COc1ccc(Cl)cc1NC(=S)Nn1cnnc1 | i
CN1CCN(NC(=O)c2cc3c(s2)CCCCC3)CC1 | i
Cc1ccccc1OCC(=O)Nc1ccc(C(=O)NC(C)(C)C)cc1 | i
O=C(O)CCNS(=O)(=O)c1cccc(Cl)c1 | i
CCN(CC)S(=O)(=O)c1ccc(Cl)c(C(=O)NC2CCCC2)c1 | i
Cc1ccc(C)c(N2CCN(S(=O)(=O)c3ccccc3)CC2)c1 | 4%
COc1ccc(-n2c(C)cc(C=O)c2C)c([N+](=O)[O-])c1 | i
O=C(COc1cccc2ccccc12)N1CCN(C(=O)COc2cccc3ccccc23)CC1 | i

A portion from the list above:
SMILES | Mtb growth
C=CCn1c(SCC(=O)Nc2ccc([N+](=O)[O-])cc2C)nnc1-c1ccccc1 | i
CNc1cc(N2CCN(S(=O)(=O)c3ccc(Br)cc3)CC2)ccc1[N+](=O)[O-] | i
CCN1CCN(CCCOc2ccc(OC)cc2)CC1 | i
S=C(NCCc1ccccc1)NCc1ccc(Cl)cc1 | ?
CCOC(=O)c1ccc(NC(=O)COc2ccccc2C(N)=O)cc1 | 1%
COc1ccccc1N1CCN(C(=O)c2ccc(S(=O)(=O)N3CCCCCC3)cc2)CC1 | 1%
O=C(c1cc(-c2ccncc2)nc2ccc(Br)cc12)N1CCN(c2ccccn2)CC1 | 0%
CC1CCN(CCC(=O)N/N=C/c2ccc([N+](=O)[O-])cc2)CC1 | i
COc1ccc(CSc2nnc(C)s2)cc1F | i
Cc1ccc(OCCNC(=O)C2CCCCC2)cc1 | 0%
COc1ccc(N(CC(=O)NC2CCCCCC2)S(=O)(=O)c2ccccc2)cc1Cl | i
CCOC(=O)COc1ccc(S(=O)(=O)Nc2ccc(OCc3ccccc3)cc2)cc1 | i
COc1ccc(Cl)cc1NC(=S)Nn1cnnc1 | i
CN1CCN(NC(=O)c2cc3c(s2)CCCCC3)CC1 | i
Cc1ccccc1OCC(=O)Nc1ccc(C(=O)NC(C)(C)C)cc1 | i
O=C(O)CCNS(=O)(=O)c1cccc(Cl)c1 | i
CCN(CC)S(=O)(=O)c1ccc(Cl)c(C(=O)NC2CCCC2)c1 | i

More compounds follow:
SMILES | Mtb growth
Fc1cccc(NC(=S)N2CCCCC2)c1 | i
CCc1ccc(C2CC(c3ccccc3C)n3nc(N)nc3N2)cc1 (stereo not given) | 9%
COc1ccc(CNCCC(c2ccccc2)c2ccco2)cc1 (stereo not given) | 24%
O=[N+]([O-])c1ccc(N2CCN(c3ncnc4c3cnn4-c3ccccc3)CC2)cc1 | i
C=CCn1c(SCC(=O)Nc2nc(C)cs2)nnc1-c1ccccc1Cl | i
O=S(=O)(c1ccc(Cl)cc1)N1CCC(N2CCOCC2)CC1 | 0%
Cc1ccc(S(=O)(=O)c2nc(S(=O)(=O)Cc3ccccc3)sc2N2CCCCCC2)cc1 | 1%
CCOC(=O)c1c(NC(=S)NC(=O)c2ccccc2)sc(C)c1-c1ccc(OC)c(OC)c1 | i
Cc1ccc(-c2nn(CC(=O)N3CCN(C)CC3)c(=O)c3ccccc23)cc1 | i
O=C(Nc1cc([N+](=O)[O-])ccc1C(=O)NCc1cccnc1)c1cccs1 | 1%
COc1ccc(O)c(C2Nc3ccccc3NC3=C2C(=O)CC(C)(C)C3)c1 (stereo not given) | i
COc1ccccc1OCC#CCSc1ncccn1 | 0%
Cc1ccc(NC(=O)CSc2nc(-c3ccccc3)cc(=O)[nH]2)c(C)c1 | i
N#Cc1cnn(C(=O)c2ccncc2)c1N | i
C1CCN(CC2COC3(CCCC3)O2)C1 (stereo not given) | i
Cc1sc2ncnc(SCc3ccccc3Cl)c2c1C | i
CC(C)Cn1c(SCC(=O)Nc2ccccc2C(F)(F)F)nnc1-c1ccncc1 | i
COc1ccc2c(Cl)c(C(=O)NN3CCOCC3)sc2c1 | i
COc1ccc(-n2c(C34CC5CC(CC(C5)C3)C4)n[nH]c2=S)cc1 | 1%
COc1c(C)cc(Br)cc1C(=O)NC(=S)Nc1ccc(-c2ccc(CO)o2)cc1 | 2%
COc1ccc(C(=O)Nc2nc(C)c(C(C)=O)s2)cc1OC | i
COc1ccc(C2(C(=O)Nc3ccc(C(=O)O)cc3)CCOCC2)cc1 | i
COc1cc(C(=O)Nc2ccc(Br)cc2C)cc(OC)c1OC | i
Cc1ccc(OCCCn2cccc2C=O)cc1 | i

An excerpt; count on the stated rates, not on these rows.
